miR-21 FLuc: qHTS Assay for Modulators of miRNAs and/orActivators of miR-21 | HeLa miR-21 FLuc reporter, luciferase, 48 h | Potency, µM (titrated, usually from 38.3 µM), without a hit: at the highest dose reporter change, positive = more light | AID 2288, 2010 | 340,000 tested, under 10 active; active = well fitted rising curve with a large enough effect; inconclusive = small, poorly fitted or top-dose-only effect; inactive = no such curve, though single readings can be large or run the other way;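 further: % of control where 0% means no effect; miR-21 action dims this reporter so a rising signal means less miR-21 action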
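Using DMEM plus 10% FBS, HeLa miR-21-FLuc cells are incubated with test compounds (final up to about 40uM) for 48 hours; firefly luciferase signal is then imaged following reagent-mediated lysis.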
Rango dissoc inh: qHTS Assay for Inhibitors of RanGTP induced Rango (Ran-regulated importin-beta cargo) - Importin beta complex dissociation. Snurportin-1 (Homo sapiens) + GTP-binding nuclear protein Ran (Homo sapiens) + Importin …. Biochemical FRET Rango-importin beta, RanGTP-induced dissociation. Potency, µM (series often up to 46.1 µM), inactives show at the top dose activity change, negative = inhibition. 340,000 compounds, 0.071% hits. AID 540253, 2011; active means falling FRET ratio curve, often poorly fitted, with flat reads before Ran was added; inconclusive means other falling curves, or compound fluorescence or quenching; inactive means flat or rising ratio curve;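 further: potency means the concentration at half of the fitted maximal effect; % of control where 0% means no effect; nearly all actives have a fitted effect of over 45% in size; -100% = wells without RanGTP and RCC1; the record marks most hits as doubtful in a second field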
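FRET read at 45 min, room temperature: inhibitors block the CFP/YFP signal rise when RanGTP (0.6 uM Ran, 2 mM GTP, 0.2 uM RCC1) frees Rango (0.1 uM) from importin beta (0.25 uM). Pre-read after 5 min compound exposure flags interference.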
GLA inh pH 4.5: qHTS Assay for Inhibitors of Human alpha-Galactosidase at pH 4.5; Alpha-galactosidase A (Homo sapiens), P06280; purified enzyme, 4-MU-alpha-Gal fluorescence, pH 4.5; activity change, negative = inhibition, % at 105 µM; 230,000 tested, under 10 active; AID 1467, 2008; inconclusive = small, poorly fitted or top-dose-only inhibition, or a rising curve; inactive = flat fitted curve, though single readings scatter; no compound was filed as active;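 further: 0% = full activity with enzyme and -100% = basal without enzyme; dose as in the result columns while the protocol names 77 µM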
Rango-impB inh: qHTS Assay for Inhibitors of Rango (Ran-regulated importin-beta cargo) - Importin beta complex formation; Importin subunit beta-1 (Homo sapiens), Q14974; Potency, µM (titrated, usually from 92.2 µM), for inactives: at the highest dose inhibition of complex formation; AID 540263, 2011; Rango CFP/YFP FRET sensor + importin beta, 45 min; 340,000 compounds, 0.031% hits; active = rising FRET ratio curve, often small or poorly fitted; inconclusive = mostly compound fluorescence or quenching in the first reads; inactive = flat curves in all reads;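 further: potency means the concentration at half of the fitted maximal effect; 0% = DMSO wells and 100% = buffer wells lacking importin beta; nearly all actives have a fitted effect of over 15% in size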
Target sequence (Q14974 whole entry, looked up): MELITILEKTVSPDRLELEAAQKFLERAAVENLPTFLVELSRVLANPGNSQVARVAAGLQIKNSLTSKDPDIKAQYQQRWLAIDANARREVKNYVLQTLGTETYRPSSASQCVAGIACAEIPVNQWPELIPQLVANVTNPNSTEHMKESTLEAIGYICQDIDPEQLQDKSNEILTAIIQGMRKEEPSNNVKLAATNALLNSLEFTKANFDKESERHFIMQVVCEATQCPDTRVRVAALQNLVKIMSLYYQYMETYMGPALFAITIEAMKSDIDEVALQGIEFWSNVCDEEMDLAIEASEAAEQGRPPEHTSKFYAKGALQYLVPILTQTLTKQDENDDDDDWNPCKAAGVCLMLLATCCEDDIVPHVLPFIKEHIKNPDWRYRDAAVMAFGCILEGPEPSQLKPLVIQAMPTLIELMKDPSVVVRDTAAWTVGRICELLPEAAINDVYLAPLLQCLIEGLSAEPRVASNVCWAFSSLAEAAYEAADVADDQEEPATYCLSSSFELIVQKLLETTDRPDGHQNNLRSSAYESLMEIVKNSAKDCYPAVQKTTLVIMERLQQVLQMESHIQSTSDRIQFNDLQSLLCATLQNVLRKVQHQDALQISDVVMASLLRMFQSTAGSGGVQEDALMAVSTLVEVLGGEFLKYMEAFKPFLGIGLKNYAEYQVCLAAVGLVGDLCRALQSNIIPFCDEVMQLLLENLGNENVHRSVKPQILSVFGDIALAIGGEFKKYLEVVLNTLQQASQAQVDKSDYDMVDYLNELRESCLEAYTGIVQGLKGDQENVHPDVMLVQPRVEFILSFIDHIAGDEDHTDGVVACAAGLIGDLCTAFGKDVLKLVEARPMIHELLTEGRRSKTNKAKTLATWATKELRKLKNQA
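FRET biosensor Rango (snurportin 1 IBB between N-terminal EYFP and C-terminal Cerulean), 50 nM in PBS/1 mM DTT/0.02% Tween-20/0.1% BSA, preincubated 5 min RT with compound; 0.125 microM importin beta added, 45 min RT, CFP/YFP FRET ratio read.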
An asterisk follows results filed as active; u = inconclusive; x = no result given; & = joins results of further samples.

SMILES | miR-21 FLuc | Rango dissoc inh | GLA inh pH 4.5 | Rango-impB inh
O=C(CSc1cccc[n+]1[O-])Nc1ccc2c(c1)OCCO2 | -13% | 20% | 7 | 2.7%
COc1ccc(S(=O)(=O)NCC(=O)N(CC(=O)NCC2CCCO2)Cc2ccccc2)cc1 (stereo not given) | -2% | 3% | x | -0.1%
COc1ccc(C(=O)CC(=O)C(=O)Nc2ccc(C)cc2Cl)cc1 | -24% | -10% | x | 0.9%
CNC(=O)CSc1ncnc2c1cnn2-c1ccccc1 | -8% | -15% | 4 | -0.1%
C=CCn1c(N2CCOCC2)nc2c1c(=O)[nH]c(=O)n2C | -5% | 10% | 4 | -1.1%
Cc1cccc2nc(CSc3nc4[nH]ncc4c(=O)n3-c3ccccc3Cl)cc(=O)n12 | -9% | 17% | 2 | 4.4%
O=C1CCC(C(=O)N(CCO)Cc2ccccc2)CN1CC1CCCCC1 (stereo not given) | -7% | 5% | x | 0.1%
CO/N=C/c1ccc(Sc2ccc(C)cc2)c([N+](=O)[O-])c1 | -1% | -17% | -6 | -0.7%
COC(=O)C(CC(C)C)NC(=O)c1cccs1 (stereo not given) | 0% | -1% | u | -0.7%
O=C(CN1C(=O)C2CCCCC2C1=O)N1CCN(c2ccc(F)cc2)CC1 (stereo not given) | -2% | -14% | 4 | -3.7%
Cc1ccccc1-c1cccc(CN2CCN(C)C(CCO)C2)c1 (stereo not given) | -5% | 10% | x | 0.7%
COCCCN1C(=O)C(O)=C(C(=O)c2ccc(C)o2)C1c1cccc(Br)c1 (stereo not given) | -7% | 0% | 1 | 2.6%
COCCn1c(SCC(=O)c2c[nH]c3ccccc23)nnc1-c1ccncc1 | -8% | 24% | 6 | -1.0%
COC(=O)c1sccc1NC(=O)c1ccccc1 | -7% | 17% | -1 | -2.6%
CCNc1nc(NC(C)(C)C)nc(N2CCCC2)n1 | -11% | 8% | 4 | -1.0%
CN(C)CCCN=Cc1c(O)n(Cc2ccccc2)c(=O)c2ccccc12 | -2% | -10% | -6 | -0.4%
COc1ccc(NC(=S)NC(=O)c2cncc(Br)c2)c(OC)c1 | 2% | -1% | x | -0.6%
COC(=O)c1ccc(NC(=O)C2CC2)o1 | -1% | 4% | -2 | 0.6%
CCN(C(=O)c1cccnc1)c1ccccc1 | -7% | 0% | 17 | 3.4%
CSc1cccc(NC(=O)CSc2ccc(Cl)cc2)c1 | -17% | 1% | 10 | 1.4%
COc1ccc(-c2cc(C(=O)Nc3ccc(Cl)cc3Cl)c3ccccc3n2)cc1OC | -9% | 2% | 5 | u
O=C(/C=C/c1ccc(Cl)cc1)N1CCOCC1 | -38% | 11% | x | 1.0%
Nc1ccn(CC(=O)N[C@H](CO)Cc2c[nH]c3ccccc23)c(=O)n1 | x | 0% | x | -2.5%
CCCCn1c(N)c(N(C)C(=O)c2c(C)nn(-c3ccccc3)c2C)c(=O)[nH]c1=O | x | -9% | x | -2.3%
NNC(=O)c1cc2ccccc2[nH]1 | 19% | -18% | 5 | 0.3%
Fc1cccc(/C=N/NC(=S)Nc2ccccc2Cl)c1 | -70% | 31% | 8 | 1.2%
O=C([C@H](O)c1ccccc1)N1CCC[C@H]1CO | -6% | -9% | 4 | 0.2%
CC(=O)c1c(C)oc2ccc(NS(=O)(=O)c3ccc(O)c(C(=O)O)c3)cc12 | 0% | -11% | 8 | 0.0%
COc1ccc(S(=O)(=O)N2CCCCC2)cc1NS(=O)(=O)c1ccccc1 | x | 4% | x | 0.1%
Cc1cccc(NC(=O)CSCC(=O)N=c2sccn2C)c1 | x | 5% | x | 2.3%
CCCC1(CC)C(=O)NC(=O)N=C1N (stereo not given) | x | -1% | x | 0.1%
O=C(CSc1ccccc1C(=O)N1CCN(c2ccccc2)CC1)N1CCCC1 | x | -10% | x | -0.1%
C/C=C/c1ccc(OCC(O)CNCC(c2ccc(OC)cc2)N(C)C)c(OC)c1 (stereo not given) | -2% | -12% | x | -2.6%
COc1ccc(C(CC(=O)O)c2cc(OC)c(OC)c(OC)c2)cc1OC (stereo not given) | x | 2% | x | -1.1%
COc1ccc(CN2CCCC(C(=O)N(C)Cc3ccccc3)C2)cc1OC (stereo not given) | -4% | 29% | -3 | -5.9%
Cc1cccc(N=C2NC(=O)/C(=C/c3cccn3C)S2)c1 | 3% | u | 5 | u
CCSc1nnc(NC(=O)C2CC(=O)N(Cc3ccc(C)cc3)C2)s1 (stereo not given) | -2% | 1% | -8 | 0.8%
Cc1ccc(Cn2c(SCC(=O)Nc3cccc(C)n3)nc3c2c(=O)n(C)c(=O)n3C)cc1 | 0% | x | 0 | x
C=CCNC(=O)c1onc(CSc2cc(C)cc(C)c2)c1C(=O)NCC=C | 14% | 8% | -5 | 3.7%
C/C(=N\NC(=O)COc1ccc(C)cc1C(C)C)c1ccc(-n2ccnc2)cc1 | -7% | 1% | 1 | 4.0%
C/C(Cn1cnc([N+](=O)[O-])n1)=N/NC(=O)COc1ccccc1Cl | -10% | 1% | 1 | -2.9%
COc1cc(OC)cc(C(=O)OCC(=O)N(C)c2ccccc2)c1 | 2% | 1% | x | 0.6%
N#Cc1ccccc1/C=N/Nc1nc(-c2ccccc2)c2cc(Cl)ccc2n1 | 2% | -23% | 3 | -3.0%
O=[N+]([O-])c1cc(C(F)(F)F)ccc1NCCCN1CCOCC1 | -2% | 17% | 4 | -0.4%
Cc1ccc(S(=O)(=O)Nc2ccc(SC(F)F)cc2)c(C)c1 | 10% | 1% | 1 | 0.7%
CCC1CCC/C1=N\NC(=O)c1cc(C)[nH]n1 (stereo not given) | -13% | 4% | -10 | -0.3%
Cc1ccc(S(=O)(=O)N(CC(=O)Nc2cccnc2)c2cccc([N+](=O)[O-])c2)cc1 | 16% | 23% | x | -4.0%
CCN(C[C@H]1N[C@@](CC)(C(=O)OC)[C@H]2C(=O)N(C)C(=O)[C@@H]12)S(=O)(=O)c1ccc(C)cc1 | x | -8% | x | -3.8%
O=C(OC(C(=O)NCc1cccs1)c1ccccn1)c1cccs1 (stereo not given) | -1% | -1% | -6 | -4.3%
CC(C)(C)NC(=O)C(=O)NNC(=O)c1ccccc1Br | 0% | 2% | -1 | 2.3%
CN(/N=C/c1cc(Cl)cc(Cl)c1O)C(=S)NC(C)(C)C | 27% | u | -2 | u
CN(CC(=O)Nc1ccc(F)cc1)C(=O)c1ccccc1Sc1ccccc1C#N | x | -9% | x | -1.1%
Cc1ccc(N=C2C(=O)Nc3ccc(Br)cc32)cc1 | 15% | -2% | x | -0.5%
CCc1cc2cc3c(cc2nc1SCC(=O)Nc1c[nH]c(=O)[nH]c1=O)OCO3 | -1% | 8% | x | -3.9%
O=C(CSc1nc2c([nH]c3ccccc32)c(=O)n1-c1cccc(Cl)c1)N1CCOCC1 | -1%&19% | 18% | 3 | -0.5%
CN(C)S(=O)(=O)c1ccc(C(=O)N2CCCC2c2nc3ccccc3s2)cc1 (stereo not given) | -16% | -4% | -13 | 0.3%
COc1ccc(C(=O)N(Cc2ccccc2)c2cccc(C)c2)cc1 | -25% | -17% | x | -1.3%
C/C(CC(=O)Nc1ccccn1)=N\NC(=O)C(=O)Nc1ccccc1C | -9% | 2% | -1 | -0.1%
COc1cccc(C2C(C(=O)c3cc4ccccc4o3)=C(O)C(=O)N2c2cc(C)on2)c1 (stereo not given) | -8% | u | x | u
CNc1ncc(C(=O)c2ccc(-c3ccccc3)cc2)s1 | -41% | 13% | 5 | -2.8%

5 entries from above, with two lines to a compound.
The line under a structure holds: miR-21 FLuc	Rango dissoc inh	GLA inh pH 4.5	Rango-impB inh
COc1cccc(C2C(C(=O)c3cc4ccccc4o3)=C(O)C(=O)N2c2cc(C)on2)c1 (stereo not given)
→ -8%	u	x	u
C/C(CC(=O)Nc1ccccn1)=N\NC(=O)C(=O)Nc1ccccc1C
→ -9%	2%	-1	-0.1%
O=C(OC(C(=O)NCc1cccs1)c1ccccn1)c1cccs1 (stereo not given)
→ -1%	-1%	-6	-4.3%
COc1ccc(C(=O)N(Cc2ccccc2)c2cccc(C)c2)cc1
→ -25%	-17%	x	-1.3%
CC(C)(C)NC(=O)C(=O)NNC(=O)c1ccccc1Br
→ 0%	2%	-1	2.3%

Other records:
SMILES | miR-21 FLuc | Rango dissoc inh | GLA inh pH 4.5 | Rango-impB inh
Cc1cccc(NC(=O)CSc2nc(N)cc(N)n2)c1 | -4% | -2% | -2 | -0.1%
O=C(NNc1cc(N2CCOCC2)nc(N2CCOCC2)n1)c1ccc(Cl)cc1Cl | -2% | 2% | -1 | 1.2%
CN(C)S(=O)(=O)Nc1cc(F)cc(F)c1 | -4% | 7% | -3 | 2.6%
Cc1cccc2[nH]c(-c3ccc(NC(=O)c4ccco4)cc3)nc12 | -42% | 8% | -7 | 3.1%
O=C(NC1CCCCC1)c1ccc(S(=O)(=O)NCc2ccco2)cc1 | -11% | 0% | 10 | -0.9%
Cc1cc(Nc2ncc(Cl)cc2Cl)n(-c2ccccc2C)n1 | -2% | 5% | 9 | -1.3%
COC1=C/C(=C/c2c(N)n3nc(CC(=O)N4CCCC4)sc3nc2=O)C=CC1=O | 5% | u | x | u
O=C(Nc1ccc(F)cc1Cl)c1ccc2c(=O)n3c(nc2c1)CCCCC3 | -26% | 0% | u | 1.6%
O=C(Oc1ccc(Nc2ncnc3ccccc23)cc1)c1cccnc1 | -19% | u | 1 | -1.8%
Cn1c(=O)n(-c2cccc(Cl)c2)c(=O)n1C | 0% | 5% | 1 | 5.4%
CN(Cc1ccccc1)C(=O)CCC1CCN(C(=O)c2ccccc2C(F)(F)F)CC1 | -9% | -13% | x | -0.6%
CN(Cc1ccc(F)cc1)Cc1nc(-c2ccccc2)no1 | -8% | 6% | x | 0.0%

Brought forward from above: 2 compounds, then new ones.
SMILES | miR-21 FLuc | Rango dissoc inh | GLA inh pH 4.5 | Rango-impB inh
CN(Cc1ccccc1)C(=O)CCC1CCN(C(=O)c2ccccc2C(F)(F)F)CC1 | -9% | -13% | x | -0.6%
CN(Cc1ccc(F)cc1)Cc1nc(-c2ccccc2)no1 | -8% | 6% | x | 0.0%
Cc1noc(/C=C/c2ccco2)c1S(=O)(=O)N1CCC(C(=O)N2CCc3ccccc3C2)CC1 | -7% | -6% | -6 | 0.9%
COc1ccc(C2Nc3cc(OC)ccc3-n3cccc32)cc1 (stereo not given) | -30% | u | 5 | u
CN(c1ccccc1C(=O)Nc1ccc(F)c(F)c1)S(C)(=O)=O | 2% | 8% | 2 | -1.2%
C=CCOc1cccc(C2/C(=C(/O)c3ccc(Cl)cc3)C(=O)C(=O)N2CCN2CCOCC2)c1 (stereo not given) | -4% | 3% | -5 | -2.0%
COc1ccc2cc3c(N)c(C(=O)NCc4ccco4)sc3nc2c1 | -11% | u | -8 | u
OCC[C@@H]1C[C@H](O)[C@@H](O)[C@@]2(OCCCc3ccccc32)O1 | 0% | 27% | x | -3.3%
COc1ccc(S(=O)(=O)N2CCN(C(c3ccccc3)c3ccccc3)CC2)cc1NC(C)=O | 1% | 24% | x | 2.3%
CN(C)c1ccc(/C=C2/C=C(c3ccc4c(c3)CCCC4)OC2=O)cc1 | 0% | -16% | -5 | -0.1%
CCN1CCN(Cc2ccc(NC(=O)Nc3ccc(OC)cc3)cc2)CC1 | -32% | 0% | -2 | -2.0%
Cc1ccc(SCCNC(=O)CN2C(=O)c3ccccc3S2(=O)=O)cc1 | 0% | -1% | -5 | -1.2%
COc1cc(NC(=O)CS(=O)(=O)c2ccc(C)cc2)cc(OC)c1OC | -3% | 18% | 4 | -0.1%
O=[N+]([O-])c1cccc(/C=N/Nc2nc(N3CCOCC3)nc(N3CCOCC3)n2)c1 | -2% | 9% | 0 | 0.0%
CCS(=O)(=O)c1ccc2oc(SCC(=O)NCCc3ccc(OC)cc3)nc2c1 | 5% | 8% | 11 | -0.8%
CC(C)(C)NCc1cc2ccccc2[nH]c1=O | 0% | 0% | 10 | 0.0%

Screening results deposited in PubChem BioAssay by National Center for Advancing Translational Sciences (NCATS).

This is a subset; the hit share may differ from the screen's.
